Sa RN4220 lethal: S. aureus RN4220 growth inhibition | inhibition, % (concentration not given with the values) | OD600, 16 h | actives 0.33% (n = 330,000);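 active = z-score of -3 or lower and OD600 up to 0.18 on both plates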;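 note: plate controls were untreated cells for no effect and reference antibiotic for full effect; stock transfer was 100 nL into about 80 µL; one replicate is shown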
Autofluor counter: flagged as autofluorescent in microsphere protease counterscreen. compound autofluorescence counterscreen, microsphere flow cytometry; active compounds read high. fluorescence intensity (no concentration beside the values). actives 3.1% (n = 360,000);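 active = at least 3 SD above the mean of all compounds, about 16000 in these data; inconclusive = too few beads counted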;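 note: 100 nL of 1 mM stock went into each well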
Mtb hypoxia rep: inhibitors of hypoxia-regulated fluorescent reporter in Mycobacterium tuberculosis. M. tuberculosis hypoxia-regulated fluorescent reporter, fluorescence. fluorescence inhibition, % (test concentration not listed). actives 0.1% (n = 300,000). AID 1159583;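 active = 35 to 45% if threefold the growth effect, above 45% if 1.5-fold the growth effect; inactive = the rest, general growth blockers included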;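 note: wells of about 50 µL received 100 nL stock; 0% = vehicle wells and 100% = reference inhibitor wells; whole bacteria with a GFP reporter of the hypoxia response; strong numbers were not always called active; many hits fall short of the cut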
ugtP null kill: compounds lethal to S. aureus RN4220 ugtP deletion mutant. AID 1259309. actives 0.54% (n = 330,000). OD600 growth, 16 h; some inactives read as strong as hits. growth inhibition, % (test concentration not listed);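 active = z-score under -3 and OD600 up to 0.15 on both plates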;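 note: plate controls were untreated wells for no effect and antibiotic for full effect; wells of about 80 µL received 100 nL stock; the first replicate is given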
PrP 5UTR inh: suppresses PrP 5' UTR mRNA reporter expression | cell-based PrP 5' UTR mRNA reporter, plate reader | actives 0.35% (n = 340,000) | inhibition, % (no concentration beside the values);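 active = every replicate at 50% or more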;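 note: 0 = median of the neutral control wells; tested in H4 reporter cells; numbers are from one replicate; inactives centre near -14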
BJeLR viability: kills HRASV12-expressing BJeLR cells. BJeLR (HRASV12) viability, CellTiter-Glo ATP luminescence, 48 h; reference of the scale not given here. inhibition, % (test concentration not listed). actives 0.17% (n = 300,000). AID 1554;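 active = replicate mean above 50%; inconclusive = above 50% but judged a plate artefact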;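 note: 50 nL library stock added to about 25 µL; numbers are from one replicate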
Mtb hypoxia rep growth: recorded beside Mtb hypoxia rep, whose call it bears; growth inhibition, %; measured here: M. tuberculosis growth (absorbance);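 0% = vehicle and 100% = reference antibiotic; read after six days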
Active calls of the source: *; u = inconclusive; x = not tested or not shown.

SMILES	Sa RN4220 lethal	Autofluor counter	Mtb hypoxia rep	Mtb hypoxia rep growth	ugtP null kill	PrP 5UTR inh	BJeLR viability
Cc1ccccc1C(=O)NN=Cc1ccc([N+](=O)[O-])s1	31	x	-2	4	38	x	x
COc1c(F)c(F)c(C(=O)O)c(Nc2ccccc2)c1F	8.8	9954	1	0	2	-27	2
Cc1nc(C(=O)O)cc2c1[nH]c1ccccc12	2.6	4023	x	x	-2	-7	6
Cc1nn(Cc2ccccc2)c2c1C(c1ccncc1)C(C#N)=C(N)O2 (stereo not drawn)	5.1	3056	x	x	-4	-4	-2
S=c1[nH]nc(-c2ccccn2)n1N=Cc1ccc(Cl)cc1	8.4	x	1	4	3	x	x
CCCc1nc2sc3c(c2c(=O)n1N)CCC3	16	3154	-2	1	3	-15	1
CN(C(=O)Nc1cnc2ccccc2c1)c1ccccc1	2.5	5162	-1	2	-3	-33	-15
CCOc1ccc(OCC(=O)OC(C)C(=O)NC2CCCC2)cc1 (stereo not drawn)	1.8	3662	-12	-5	-2	2	x
Cc1ccc(C(=O)Nc2ccc(S(=O)(=O)N3CCN(C)CC3)cc2)o1	-2.4	10727	1	9	1	1	-2
COc1ccc(C2c3ccc4ccccc4c3Oc3ncn(CCN(C)C)c(=N)c32)cc1 (stereo not drawn)	-0.1	3797	4	14	9	-7	4
CCNc1nc(NCC)nc(OCCOC(=O)Nc2ccccc2)n1	6.3	9223	5	0	5	-7	12
Cc1nn(Cc2ccc(C(=O)NN)cc2)c(C)c1Cl	1.7	3984	8	14	1	-3	3
COc1ccc(S(=O)(=O)N2CCC(C(=O)NCc3ccncc3)CC2)cc1Cl	3.1	4598	-4	-8	-2	-5	-5
CCC(Cc1ccccc1)NC(=O)C1=C(C)C(=O)OC12CCC(C)CC2 (stereo not drawn)	8.8	2250	4	1	-21	-18	-8
O=C(O)c1ccccc1C(=O)NCc1cccnc1	1.2	2396	x	x	-4	-28	-1
Cc1ccc(N(C(=O)c2csnn2)C(C(=O)NC(C)(C)C)c2cccnc2)cc1 (stereo not drawn)	5.9	4077	12	9	10	-15	4
COc1ccc(NC(=O)C(OC(=O)c2cnc(C)cn2)c2ccccc2)cc1Cl (stereo not drawn)	1.3	u	10	-1	0	-38	2
Cn1c(Cc2cccs2)nnc1SCc1nc2ccccc2[nH]1	-15	2422	15	9	-11	-15	1
O=c1[nH][nH]c2cc(=O)n(-c3cccc(C(F)(F)F)c3)nc12	2.4	2619	9	7	-1	-12	-2
Cc1ccc(F)cc1NC(=O)COC(=O)COc1ccc(C#N)cc1	0.8	5728	13	-3	5	-5	-9
c1ccc(CN2CCN(c3nc(-c4ccccc4)nc(-n4ccnc4)n3)CC2)cc1	3.4	6207	12	22	-11	-20	3
Cc1sc2ncn(CC(=O)NCCCC(=O)N3CCC4(CC3)OCCO4)c(=O)c2c1C	-0.5	4455	-7	6	0	0	x
Cc1nc(C)c(-c2csc(N)n2)s1	0.5	4540	11	15	2	3	8
O=C(Nc1ccccc1)c1cccc(=O)o1	2.3	3272	-10	2	3	-12	9
O=C1CSC(=O)N1CC(O)COc1ccc(Cl)cc1 (stereo not drawn)	5.7	7401	10	-4	11	-17	-4

Structural class, the entries above with an NH in an aromatic ring
SMILES	Sa RN4220 lethal	Autofluor counter	Mtb hypoxia rep	Mtb hypoxia rep growth	ugtP null kill	PrP 5UTR inh	BJeLR viability
Cc1nc(C(=O)O)cc2c1[nH]c1ccccc12	2.6	4023	x	x	-2	-7	6
S=c1[nH]nc(-c2ccccn2)n1N=Cc1ccc(Cl)cc1	8.4	x	1	4	3	x	x
Cn1c(Cc2cccs2)nnc1SCc1nc2ccccc2[nH]1	-15	2422	15	9	-11	-15	1
O=c1[nH][nH]c2cc(=O)n(-c3cccc(C(F)(F)F)c3)nc12	2.4	2619	9	7	-1	-12	-2

Next section
SMILES	Sa RN4220 lethal	Autofluor counter	Mtb hypoxia rep	Mtb hypoxia rep growth	ugtP null kill	PrP 5UTR inh	BJeLR viability
CCOC(=O)CN(C(=O)COc1nc(-c2ccccc2)cc(C)c1C#N)c1ccc(C)cc1	2.4	5959	5	1	-41	-6	9
c1ccc(CCn2nnc3ccccc32)cc1	8.8	4192	11	21	6	-62	-2
COc1ccc(NC(=O)Nc2sc(NS(=O)(=O)c3ccccc3)nc2C)cc1	3.9	4669	-4	9	10	-12	7
CN(C)S(=O)(=O)c1ccc(Cl)c(NC(=O)COC(=O)CN2C(=O)NC(C)(C)C2=O)c1	6.0	6710	11	8	8	-32	2
COc1ccc(NC(=O)CN2CCN(S(=O)(=O)N(C)C)CC2)cc1	1.5	4580	-2	-1	2	-8	1
COC(=O)c1c(C(=O)OC)c(C)n(Cc2cccnc2)c1C	-2.5	4126	x	x	-2	-9	0
S=c1[nH]nc(-c2ccncc2)n1N=Cc1ccccc1	5.2	x	9	2	-2	x	x
COc1cccc(CN(C)C(=O)CNC(=O)c2ccc(-c3ccccc3)cc2)c1OC	3.8	4127	12	3	5	-11	-2
COc1ccc(C2CCN(Cc3cccnc3)CC2O)cc1 (stereo not drawn)	3.1	4643	-4	3	1	-6	9
COc1ccc(N2C(=O)CSCC2=O)cc1OC	3.0	4804	-3	3	3	-30	2
COc1cccc(C(=O)NC(=S)N2CCN(c3ccc(C(F)(F)F)cc3[N+](=O)[O-])CC2)c1	-0.6	2112	8	2	10	-24	7
CCc1ccccc1NC(=S)N(Cc1cccnc1)Cc1ccco1	4.6	1962	8	10	5	1	-6
CCOc1ccc(N2C(=O)S/C(=C\c3ccc(O)c(OC)c3)C2=O)cc1	3.3	4590	0	5	-8	-30	0
Cc1cc(C)cc(NC(=O)c2cccc3c2C(=O)N(C2CCCCC2)C3)c1	-1.3	4448	3	-2	-10	-18	-4
CCOC(=O)c1nc2cc3n(c(C)c-2c1C)C(C)C(C)=C3C (stereo not drawn)	0.0	2947	x	x	4	-8	x
CC(NC(=O)CN1C(=O)NC2(CCCCC2)C1=O)c1ccc(S(N)(=O)=O)cc1 (stereo not drawn)	1.5	u	-4	5	1	-10	x
CC(=O)N1CCN(c2ccc(N=Cc3c(O)n(Cc4ccccc4)c(=O)[nH]c3=O)cc2)CC1	-11	3094	5	1	-5	-10	-2
CCN(CC)C(=O)c1[nH]cnc1C(=O)NC(C)C(=O)OCc1ccccc1 (stereo not drawn)	6.5	x	6	4	5	x	x
Cc1ccc(NC(=S)N2CCN(S(C)(=O)=O)CC2)cc1	1.5	4862	10	2	5	-14	2
CC(C)Sc1cc(N2CCOCC2)nc(-c2ccc(Cl)cc2)n1	6.2	2406	14	7	2	-19	-5
COc1ccc(CCCc2n[nH]c(=S)n2C)cc1C	7.6	3353	-17	-20	7	-11	-5
CCOC(=O)c1c(C(=O)OCC)c(C)n(CCc2ccc(OC)c(OC)c2)c1C	3.5	2111	10	2	4	-20	-15
CC1=C(C(=O)Nc2ccc(F)cc2)C(c2ccc(C)o2)C2=C(CC(C)(C)CC2=O)N1 (stereo not drawn)	0.5	3622	12	5	4	-12	-1
Cc1c(C(=O)N2CCCCC2)c(S(=O)(=O)Nc2ccc(F)cc2F)c(C)n1C	3.8	5424	10	13	4	-3	-3
CCC(Sc1nc(N)c(NC(=O)c2ccc(OC)cc2)c(=O)[nH]1)C(=O)O (stereo not drawn)	3.9	3263	3	6	5	-19	3

Next section; the last two above are carried over.
SMILES	Sa RN4220 lethal	Autofluor counter	Mtb hypoxia rep	Mtb hypoxia rep growth	ugtP null kill	PrP 5UTR inh	BJeLR viability
Cc1c(C(=O)N2CCCCC2)c(S(=O)(=O)Nc2ccc(F)cc2F)c(C)n1C	3.8	5424	10	13	4	-3	-3
CCC(Sc1nc(N)c(NC(=O)c2ccc(OC)cc2)c(=O)[nH]1)C(=O)O (stereo not drawn)	3.9	3263	3	6	5	-19	3
CCc1ccc(C2CC=C(C(=O)O)C(c3ccccc3)N2S(=O)(=O)c2ccc(C)cc2)cc1 (stereo not drawn)	18	x	3	-4	37	x	x
COc1ccccc1CCNC(=O)c1ccoc1C	1.3	10886	-4	13	-3	7	10
Cc1ccc(-c2nnn3c2nc(NCCc2ccc(S(N)(=O)=O)cc2)c2ccccc23)cc1	x	10143	x	x	x	-19	-10
N#Cc1c(-c2ccccc2)nc2n1CCS2	7.7	4047	17	9	-4	-26	1
C/C(=N/N=C/c1ccccc1O)c1ccccc1O	x	3470	x	x	x	-71	-16
O=C(CNC(=O)c1ccco1)OCc1ccc(Br)cc1	1.3	5649	1	11	3	-32	5
COc1ccc(CCNc2oc(-c3ccco3)nc2C#N)cc1	10	11194	x	x	-1	-12	11
O=C(C1CC1)N1CCC(Oc2cccc(C(=O)N3CCCCC3CCO)c2)CC1 (stereo not drawn)	0.9	6271	2	6	5	-7	-1
Cc1ccc(S(=O)(=O)NCCS(=O)(=O)N2CCN(c3ccccc3)CC2)cc1	0.8	4374	8	1	12	-7	-5
O=c1[nH]c(CN(CCc2ccccc2)S(=O)(=O)c2ccc(Cl)cc2)nc2ccccc12	5.4	2010	-4	-3	4	5	-11
COc1ccc2cc(C(N)=O)c(=Nc3ccccc3)oc2c1	5.8	1969	11	6	-7	-12	11
Cc1ccccc1OCc1nnc(SCC(=O)NCc2ccccc2)n1C	1.1	3884	3	3	2	-6	-18
CCOC(=O)c1cccc(NC(=O)c2c(O)[nH]c(=O)[nH]c2=O)c1	8.3	3550	9	6	3	-9	13
CN(C(=O)CSc1nnc(NCc2ccccc2)s1)C1CCS(=O)(=O)C1 (stereo not drawn)	4.6	3947	7	4	3	-12	-3
CC(C)n1ncc2c(C(=O)NCc3ccccc3CN(C)C)cc(C3CC3)nc21	2.5	3427	4	10	12	-4	x
CCCCn1c(N)c(N(CCC(C)C)C(=O)C2CCCN(C(=O)c3ccc(Cl)cc3)C2)c(=O)[nH]c1=O (stereo not drawn)	-1.9	u	7	10	17	-17	2
Cc1cccc(C)c1NC(=O)N1CC=C(n2c(=O)[nH]c3ccccc32)CC1	6.2	x	-2	5	7	-1	0
CN(C)C1=NC(=O)/C(=C\c2ccccc2)S1	3.2	2186	8	21	2	-30	2
COc1cc(N)c(Br)cc1C(=O)O	3.9	1988	6	10	-5	-16	0
O=C1CC(CCC(=O)NC2CC2)c2ccccc2N1 (stereo not drawn)	1.8	20432*	4	9	2	-6	3
Cc1cc2n(n1)C(c1ccc(N(C)C)cc1)Nc1ccccc1-2 (stereo not drawn)	15	20611*	1	15	-17	-39	-8
Fc1ccc(N2CCN(C3=Nc4cccc5cccc3c45)CC2)cc1	8.7	4170	14	19	-4	-33	-1
O=C(COc1ccc2c(c1)C(=O)CC1(CCCCC1)O2)NCc1ccccn1	0.4	7850	7	1	9	-10	19
CCCC(=O)Nc1cc(C(F)(F)F)ccc1N1CCOCC1	6.4	4240	12	18	3	-42	3
CCCCOC(=O)Nc1cc(C)c(Cl)cc1OC	2.5	2389	x	x	6	-11	-5

Compound profiles, from the list above. Order of screens: Sa RN4220 lethal, Autofluor counter, Mtb hypoxia rep, Mtb hypoxia rep growth, ugtP null kill, PrP 5UTR inh, BJeLR viability
`CCCCn1c(N)c(N(CCC(C)C)C(=O)C2CCCN(C(=O)c3ccc(Cl)cc3)C2)c(=O)[nH]c1=O` (stereo not drawn) in the list: -1.9, u, 7, 10, 17, -17, 2
`O=C(COc1ccc2c(c1)C(=O)CC1(CCCCC1)O2)NCc1ccccn1` in the list: 0.4, 7850, 7, 1, 9, -10, 19

(continued)
SMILES	Sa RN4220 lethal	Autofluor counter	Mtb hypoxia rep	Mtb hypoxia rep growth	ugtP null kill	PrP 5UTR inh	BJeLR viability
O=C1/C(=C/c2cccc3ccccc23)CCCc2ccccc21	-9.1	9086	6	9	62	-37	-10
CCCCNC(=S)N/N=C/c1cccc(OCC)c1O	x	4605	x	x	x	-2	-1
CC(C)c1nnc(NC(=O)CCS(=O)(=O)Cc2ccccc2)s1	0.2	3321	-7	-6	-2	-1	-9
CC1CCc2c(sc(NC(=O)c3ccc(N4C(=O)CCC4=O)cc3)c2C(N)=O)C1 (stereo not drawn)	1.4	x	11	8	4	x	x
c1ccc(Nc2nc3ccccc3o2)cc1	0.2	10188	8	5	-16	x	6
CCCC(=O)N(CCN1CCOCC1)c1nc2c(C)cccc2s1	3.7	5396	6	4	5	0	-12
Cc1nn(CC(=O)N/N=C/c2ccc3c(c2)OCO3)c(C)c1Br	x	8533	x	x	x	-28	7
O=C(Nc1ccc(N2CCCCC2)cc1)c1cncc(Br)c1	4.7	4551	4	10	7	-102	-21
CCNc1nc(NCC)n2c(SCC(=O)Nc3ccccc3F)nnc2n1	1.3	5212	5	13	2	-16	-8
CCC(=O)c1ccc(OCC(=O)OCC(=O)NCc2cccs2)cc1	1.0	6518	-1	2	1	-12	2

Bioassay records deposited in PubChem by several laboratories.
